Screening data: PubChem BioAssay, National Center for Advancing Translational Sciences (NCATS)
miR-21 reporter: miR-21 reporter, rising signal; HeLa miR-21 FLuc reporter, luciferase, 48 h; Potency, µM (top dose mostly 38.3 µM), for inactives: top-dose reporter change, positive = more light; 340,000 tested, under 10 active; AID 2288; active = well fitted rising curve with a large enough effect; inconclusive = small, poorly fitted or top-dose-only effect; inactive = no such curve, though single readings can be large or run the other way;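 also: % of control where 0% means no effect; miR-21 action dims this reporter so a rising signal means less miR-21 action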
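HeLa miR-21-FLuc reporter line, endogenous miR-21; 2000 cells/well in DMEM/10% FBS; compound titration up to ~40uM final, 48 h, 37 degree Celsius; luciferase detection reagent, 15 min lysis, CCD luminescence.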
Rango-impB inh: Rango-importin beta binding inhibition | Q14974 | Rango CFP/YFP FRET sensor + importin beta, 45 min | Potency, µM (doses to about 92.2 µM), inactives show top-dose inhibition of complex formation | hit rate 0.031% among 340,000; active = rising FRET ratio curve, often small or poorly fitted; inconclusive = mostly compound fluorescence or quenching in the first reads; inactive = flat curves in all reads;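 also: potency is read from the fitted curve at half-maximal effect; 0% = DMSO wells and 100% = buffer wells lacking importin beta; nearly all actives have a fitted effect of over 15% in size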
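Inhibition scored from the CFP 486 nm/YFP 530 nm FRET ratio 45 min after adding 0.125 microM importin beta to 50 nM Rango biosensor preincubated 5 min with compound (room temperature, PBS with DTT, Tween-20, BSA). No-importin wells as positive control.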
GLA inh pH 4.5: inhibitors of human alpha-galactosidase A at pH 4.5 | P06280 | purified enzyme, 4-MU-alpha-Gal fluorescence, pH 4.5 | activity change, negative = inhibition, % at 105 µM | 230,000 tested, under 10 active | AID 1467; inconclusive = small, poorly fitted or top-dose-only inhibition, or a rising curve; inactive = flat fitted curve, though single readings scatter; no compound was filed as active;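 also: 0% = full activity with enzyme and -100% = basal without enzyme; dose as in the result columns while the protocol names 77 µM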
Target sequence (P06280 whole entry, looked up): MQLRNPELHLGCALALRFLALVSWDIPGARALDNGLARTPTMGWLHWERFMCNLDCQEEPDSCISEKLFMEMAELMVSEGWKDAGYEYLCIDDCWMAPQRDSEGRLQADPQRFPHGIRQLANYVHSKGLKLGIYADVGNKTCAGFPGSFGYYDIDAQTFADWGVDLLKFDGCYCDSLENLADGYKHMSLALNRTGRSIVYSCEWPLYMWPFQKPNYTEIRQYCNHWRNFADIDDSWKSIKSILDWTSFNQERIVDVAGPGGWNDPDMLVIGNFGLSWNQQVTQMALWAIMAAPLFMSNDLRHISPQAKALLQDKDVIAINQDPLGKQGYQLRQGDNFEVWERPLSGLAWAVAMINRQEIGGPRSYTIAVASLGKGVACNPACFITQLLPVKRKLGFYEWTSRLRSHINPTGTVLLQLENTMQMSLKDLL
Rango dissoc inh: inhibition of RanGTP-driven Rango-importin beta dissociation; Potency, µM (top dose mostly 46.1 µM), for inactives: at the top dose activity change, negative = inhibition; Biochemical FRET Rango-importin beta, RanGTP-induced dissociation; O95149+P62826; hit rate 0.071% among 340,000; active means falling FRET ratio curve, often poorly fitted, with flat reads before Ran was added; inconclusive means other falling curves, or compound fluorescence or quenching; inactive means flat or rising ratio curve;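 also: potency is read from the fitted curve at half-maximal effect; % of control where 0% means no effect; nearly all actives have a fitted effect of over 45% in size; -100% = wells without RanGTP and RCC1; the record marks most hits as doubtful in a second field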
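Rango FRET biosensor (snurportin-1 IBB flanked by N-terminal EYFP and C-terminal CFP10) at 0.1 uM, with 0.25 uM importin beta in PBS, 1mM DTT, 0.02% Tween-20, 0.1% BSA. 0.6 uM Ran, 2mM GTP and 0.2 uM RCC1 were then added for 45 min at room temperature. Inhibition read as loss of FRET rise.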
The depositor's hits bear a star; u = inconclusive; x = no result given.

Start of the data: the first 13 records (preview)
GLA inh pH 4.5	Rango-impB inh	Rango dissoc inh	miR-21 reporter	Compound
6	-0.8%	16%	-56%	COc1ccc(C2Cc3ccccc3C(=O)O2)cc1 (configuration not stated)
6	-3.2%	-11%	10%	COc1ccccc1/C=C/C(=O)NCC(=O)N/N=C/c1cc(Br)ccc1OC
x	-0.2%	-7%	0%	O=C(NN1CCOCC1)c1ccc(Cl)c(Cl)c1
-17	2.5%	8%	-1%	COc1ccc(-n2cccc2/C=C2\C(=N)N3N=C(C(C)C)SC3=NC2=O)cc1
5	-3.4%	2%	-34%	COCCNC(=S)Nc1ccc(N2CCCCC2)cc1
4	4.5%	-1%	-6%	CCCCOCCCNC(=O)c1ccc(OCC)cc1
-5	-4.8%	-7%	-24%	CC(C)c1ccc(N(C(=O)c2csnn2)C(C(=O)NC(C)(C)C)c2ccncc2)cc1 (configuration not stated)
-6	0.5%	9%	-3%	CCCn1c(C)cc(/C=C(\C#N)C(=O)OCC(=O)NC(=O)NC(C)(C)C)c1C
x	u	3%	1%	COC(=O)c1c(NC(=O)COc2ccc(Cl)cc2)sc2c1CC(C)(C)NC2(C)C
x	-0.7%	42%	x	COCCN(C(=O)COC(=O)C12CC3CC(CC(Cl)(C3)C1)C2)c1c(N)n(Cc2ccccc2)c(=O)[nH]c1=O
-1	1.3%	-6%	-10%	O=c1c2ccccc2nc(SCc2cn3ccsc3n2)n1-c1ccccc1F
1	u	9%	-1%	COc1ccc(NC(=O)CC2C(=O)N(c3ccccc3)C(=O)N2Cc2ccco2)cc1 (configuration not stated)
x	0.9%	7%	x	COc1cc2c[n+](C)c3c4ccccc4ccc3c2cc1OC

The whole of this part, from the start:
GLA inh pH 4.5	Rango-impB inh	Rango dissoc inh	miR-21 reporter	Compound
6	-0.8%	16%	-56%	COc1ccc(C2Cc3ccccc3C(=O)O2)cc1 (configuration not stated)
6	-3.2%	-11%	10%	COc1ccccc1/C=C/C(=O)NCC(=O)N/N=C/c1cc(Br)ccc1OC
x	-0.2%	-7%	0%	O=C(NN1CCOCC1)c1ccc(Cl)c(Cl)c1
-17	2.5%	8%	-1%	COc1ccc(-n2cccc2/C=C2\C(=N)N3N=C(C(C)C)SC3=NC2=O)cc1
5	-3.4%	2%	-34%	COCCNC(=S)Nc1ccc(N2CCCCC2)cc1
4	4.5%	-1%	-6%	CCCCOCCCNC(=O)c1ccc(OCC)cc1
-5	-4.8%	-7%	-24%	CC(C)c1ccc(N(C(=O)c2csnn2)C(C(=O)NC(C)(C)C)c2ccncc2)cc1 (configuration not stated)
-6	0.5%	9%	-3%	CCCn1c(C)cc(/C=C(\C#N)C(=O)OCC(=O)NC(=O)NC(C)(C)C)c1C
x	u	3%	1%	COC(=O)c1c(NC(=O)COc2ccc(Cl)cc2)sc2c1CC(C)(C)NC2(C)C
x	-0.7%	42%	x	COCCN(C(=O)COC(=O)C12CC3CC(CC(Cl)(C3)C1)C2)c1c(N)n(Cc2ccccc2)c(=O)[nH]c1=O
-1	1.3%	-6%	-10%	O=c1c2ccccc2nc(SCc2cn3ccsc3n2)n1-c1ccccc1F
1	u	9%	-1%	COc1ccc(NC(=O)CC2C(=O)N(c3ccccc3)C(=O)N2Cc2ccco2)cc1 (configuration not stated)
x	0.9%	7%	x	COc1cc2c[n+](C)c3c4ccccc4ccc3c2cc1OC
-7	-1.2%	-7%	-8%	CN1CCCN(c2ncnc3scc(-c4ccc(F)cc4)c23)CC1
12	-1.7%	0%	-10%	CCOc1ccc2ccccc2c1/C=N/NC(=O)CC1(C)OCCCO1
x	0.4%	-18%	9%	CC(C)=NOCC(=O)Nn1c(COc2ccccc2)nc2ccccc2c1=O
0	2.4%	8%	5%	COc1cc(C(=O)NCc2ccccn2)ccc1OCc1c(C)noc1C
x	-4.2%	-4%	5%	Cc1nc2ccc(S(=O)(=O)NCC(=O)NCCc3ccc(Cl)cc3)cc2s1
-10	7.5%	-14%	-17%	O=C(CSCc1ccco1)NC1CCCC1
x	u	-24%	-1%	CCCN1CCC(=O)N([C@H](CN=[N+]=[N-])CC(C)C)CC1
x	13%	-8%	-4%	O=C(CNC1CCCC1)Nc1ccc(S(=O)(=O)N2CCCCC2)cc1
7	-3.0%	-5%	-7%	CC(C)CNC(=O)COC(=O)c1ccccc1SCC(=O)NCC(C)C
5	-2.8%	9%	u	COc1ccccc1NS(=O)(=O)c1cccc(NC(=O)Nc2ccccc2)c1
-1	-7.5%	8%	-25%	N/C(=N\OC(=O)COc1ccc(Cl)cc1)c1cccnc1
-1	0.5%	5%	-11%	COc1cc(NC(=O)C2CCCO2)c(OC)cc1Cl (configuration not stated)
0	-0.7%	0%	0%	C=CCOc1ccc2c(c1)c(=O)cc(C(=O)O)n2CC
0	3.1%	-5%	-41%	CCc1nc(SCc2ccc([N+](=O)[O-])cc2)n[nH]1
x	0.4%	u	x	CCN(CC)CC(=O)NC1CCCc2c1cnn2-c1cc(F)cc(F)c1 (configuration not stated)
-13	4.6%	2%	21%	CC1Cc2ccccc2N1S(=O)(=O)c1cccc(C(=O)N2CC(=O)Nc3ccccc32)c1 (configuration not stated)
7	-0.8%	-8%	0%	O=C(Cc1n[nH]c(=O)c2ccccc12)Nc1cccc(S(=O)(=O)N2CCCC2)c1

Continued:
GLA inh pH 4.5	Rango-impB inh	Rango dissoc inh	miR-21 reporter	Compound
-2	0.5%	1%	1%	Cc1c(C2(O)C(=O)Nc3ccc(F)cc32)c(=O)n(-c2ccccc2)n1C (configuration not stated)
7	0.3%	-10%	-6%	CCNC(=S)NNC(=O)c1ccc(OC(F)F)cc1
-7	-4.8%	-11%	-14%	COc1ccc(/C=N/NC(=O)C(C)n2nnc3ccccc32)cc1OC (configuration not stated)
8	0.5%	1%	0%	CNNC(=O)C(=O)NNS(=O)(=O)c1ccccc1
9	-1.0%	0%	-4%	Cc1nnc(SCc2ccccc2)n1CC1CCCO1 (configuration not stated)
5	-1.1%	-9%	-3%	CCOC(=O)c1sc(NC(=O)CC)c(C#N)c1C
-3	-1.0%	-8%	-7%	O=C(CN1CCCCC1)Nc1ccccc1
-4	-0.5%	-2%	-30%	CC(C)(C)n1nc(-c2ccc(Cl)cc2)c2c(N)ncnc21
x	u	1%	-1%	CC1CCCCN1C(=O)c1ccc(Br)o1 (configuration not stated)
x	4.5%	-14%	-1%	O=c1[nH]nc(C(F)(F)F)c2nnn(Cc3ccccc3Cl)c12
-1	-6.3%	-2%	-27%	C=CCOC(=O)c1sc(NC(=O)c2ccc(OC)cc2)nc1C
6	1.3%	10%	u	CC(C)c1ccc(/C=C(\c2nc3ccccc3[nH]2)S(=O)(=O)c2ccccc2)cc1
x	0.7%	0%	x	O=C(NC1=NCCS1)c1cccc(F)c1
-1	3.4%	-6%	10%	Cc1ccc2nc(SCC(=O)N(CC(C)C)c3c(N)n(Cc4ccccc4)c(=O)[nH]c3=O)[nH]c2c1
x	-0.7%	1%	x	CCN(CC(=O)Nc1c(F)cccc1F)C(=O)CCCOc1ccccc1
1	2.5%	0%	0%	Cc1cccc(Nc2ncccc2C(=O)NCc2cccs2)c1C
10	-1.6%	-1%	-8%	CCCCCOC(=O)Cn1c(N2CCCCCC2)nc2c1c(=O)[nH]c(=O)n2C
1	4.4%	6%	-4%	CC1(C)C2CCC1(C)C1(C2)NC(=O)c2ccccc2O1 (configuration not stated)
0	4.4%	16%	-7%	CCC(C)NC(=O)c1ccccc1NC(=O)Nc1ccccc1 (configuration not stated)
x	-0.8%	1%	-1%	O=C1CCC(C(=O)N2CCN(c3cnccn3)CC2)CN1CCc1cccc(F)c1 (configuration not stated)
-15	5.1%	0%	-14%	O=C(N1CCOCC1)N1CCCC(c2nc(-c3cccs3)no2)C1 (configuration not stated)
3	-0.1%	1%	-3%	OCCn1c(CSc2nc3ccccc3n2CCO)nc2ccccc21
6	6.4%	26%	-4%	CCSc1nnc(COc2ccccc2)n1CC
x	-0.1%	-2%	-2%	Cc1cc(C)cc(C(=O)NCC(=O)N2CCC3(CC2)NCCc2[nH]cnc23)c1
1	-0.2%	-30%	-4%	COc1cc(C2C3C(C)N(C)C(=O)N(C)C3N(C)C(=O)N2C)ccc1O (configuration not stated)
0	-1.8%	43%	-2%	CCOc1ccccc1NC(=S)Nc1ccccc1F
x	-0.8%	2%	0%	O=C(O)CNC(=O)C1CCCN1C(=O)CNC(=O)OCc1ccccc1 (configuration not stated)
x	u	-24%	x	O=C(CSc1nc2[nH]c(=O)cc(O)c2s1)Nc1cccc(Br)c1
x	0.2%	12%	x	C[C@H](CO)N1C[C@H](C)[C@@H](CN(C)S(C)(=O)=O)Oc2c(NC(=O)Nc3ccc(C(F)(F)F)cc3)cccc2C1=O
x	-0.8%	-13%	x	O=C1C=C(c2ccc(O)cc2)C[C@@H](c2ccc(Cl)cc2)C1

Later entries
GLA inh pH 4.5	Rango-impB inh	Rango dissoc inh	miR-21 reporter	Compound
x	6.8%	-19%	x	O=C(CNc1ccc(Br)cc1)NC(=O)NC1CCCCC1
2	u	u	-10%	CCn1c(SCC(=O)c2ccccc2)nc2sc3c(c2c1=O)CCN(C)C3
-5	1.6%	-5%	-5%	CCN(CC)c1ccc(/C=N/OCC(=O)Nc2cccc(C)c2)cc1
-8	1.7%	6%	-2%	CCC(Sc1nnc2c3ccccc3n(CC)c2n1)C(=O)Nc1sc2c(c1C#N)CCCC2 (configuration not stated)
x	-3.2%	-2%	-12%	CN(Cc1ccon1)C(=O)c1ccc2nc(Cc3cccc(Cl)c3)oc2c1
x	-3.6%	10%	x	O=C(COC(=O)Cc1ccc([N+](=O)[O-])cc1)NCc1ccc2c(c1)OCO2
-19	-3.8%	-6%	-40%	COc1cc2c(cc1NC(=O)c1cccc(F)c1)CCCC2
x	2.3%	16%	0%	CCCCSCCCNC(=O)CCCN1C(=O)c2ccccc2Sc2ncccc21
7	-3.4%	-7%	-1%	Cc1ccc(C(CC(N)=O)c2ccco2)cc1 (configuration not stated)
x	-0.4%	-6%	13%	COc1ccc(-c2cc(C)no2)cc1S(=O)(=O)NCC(C)c1ccccc1 (configuration not stated)
-12	-0.5%	2%	1%	CN(C)c1ccc(S(=O)(=O)NCC(=O)OCC(=O)Nc2cccc(Cl)c2)cc1[N+](=O)[O-]
8	-1.8%	-8%	4%	NC(=O)COC(=O)CC(c1ccccc1)c1ccccc1
x	0.2%	-15%	5%	COc1cc(CN2CCCC(C(=O)c3ccc(SC)cc3)C2)cc(Cl)c1O (configuration not stated)
1	0.1%	6%	-104%	Nc1nc2sc3c(c2c(=O)s1)CCCC3
7	-0.2%	1%	6%	CCOC(=O)C1C(c2ccc(Cl)cc2)NC(=S)NC1(O)C(F)(F)F (configuration not stated)
-1	1.4%	7%	-6%	COc1ccc2c(C)cc(SCC(=O)NCCN3C(=O)CSC3=O)nc2c1
x	-0.1%	0%	1%	COc1ccc(C(=O)NCCNC(=O)c2cnccn2)cc1
-1	0.4%	1%	-11%	Cc1ccc(S(=O)(=O)/N=C2/NC(=O)/C(=C/c3ccccc3)S2)cc1
x	1.0%	5%	17%	COc1ccc(S(=O)(=O)N2CCC(C(=O)NC(C)CCc3ccccc3)CC2)cc1 (configuration not stated)
2	-1.4%	-8%	-9%	N#Cc1ccc(CN2CCN(C(=O)c3ccccc3)CC2)c(Cl)c1
x	0.3%	-13%	1%	Cc1cc(C)cc(N(CC(=O)NC(C)(C)C)C(=O)CCC(=O)Nc2ccccn2)c1
-11	u	u	-25%	CCN1CCN(Cc2c(O)ccc3c2O/C(=C\c2ccccc2)C3=O)CC1
7	-5.4%	2%	-11%	O=C(O)CCSc1nnc(CNc2ccc(Cl)cc2)n1Cc1ccccc1
x	2.5%	4%	x	CC(=O)c1ccc(S(=O)(=O)N2CCN(C(=O)CSC(=S)N3CCCC3)CC2)cc1
x	4.3%	15%	-8%	Cc1ccc(C(=O)N2CCCCC2)cc1S(=O)(=O)N1CCCC1
12	-1.3%	12%	4%	CCCc1cc(N2CCC(C(N)=O)CC2)nc(-c2ccccc2)n1

Limited to miR-21 reporter, for some of the entries so far:
mol	miR-21 reporter
Nc1nc2sc3c(c2c(=O)s1)CCCC3	-104%
CCOC(=O)C1C(c2ccc(Cl)cc2)NC(=S)NC1(O)C(F)(F)F (configuration not stated)	6%

The list is partial; rates above refer to the full screens.
